miR-21 reporter – raises the signal of a miR-21 reporter | Potency, µM (top dose mostly 38.3 µM), for inactives: at the top dose reporter change, positive = more light | HeLa miR-21 FLuc reporter, luciferase, 48 h | 340,000 tested, under 10 active; active = well fitted rising curve with a large enough effect; inconclusive = small, poorly fitted or top-dose-only effect; inactive = no such curve, though single readings can be large or run the other way;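 note: % of control where 0% means no effect; miR-21 action dims this reporter so a rising signal means less miR-21 action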
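HeLa miR-21-FLuc reporter line, endogenous miR-21; 2000 cells/well in DMEM/10% FBS; compound titration up to ~40uM final, 48 h, 37 degree Celsius; luciferase detection reagent, 15 min lysis, CCD luminescence.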
GLA inh pH 4.5 – blocks human alpha-galactosidase A at pH 4.5; 230,000 tested, under 10 active; purified enzyme, 4-MU-alpha-Gal fluorescence, pH 4.5; P06280; activity change, negative = inhibition, % at 105 µM; AID 1467; inconclusive = small, poorly fitted or top-dose-only inhibition, or a rising curve; inactive = flat fitted curve, though single readings scatter; no compound was filed as active;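 note: 0% = full activity with enzyme and -100% = basal without enzyme; dose as in the result columns while the protocol names 77 µM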
Target sequence (P06280 whole entry, looked up): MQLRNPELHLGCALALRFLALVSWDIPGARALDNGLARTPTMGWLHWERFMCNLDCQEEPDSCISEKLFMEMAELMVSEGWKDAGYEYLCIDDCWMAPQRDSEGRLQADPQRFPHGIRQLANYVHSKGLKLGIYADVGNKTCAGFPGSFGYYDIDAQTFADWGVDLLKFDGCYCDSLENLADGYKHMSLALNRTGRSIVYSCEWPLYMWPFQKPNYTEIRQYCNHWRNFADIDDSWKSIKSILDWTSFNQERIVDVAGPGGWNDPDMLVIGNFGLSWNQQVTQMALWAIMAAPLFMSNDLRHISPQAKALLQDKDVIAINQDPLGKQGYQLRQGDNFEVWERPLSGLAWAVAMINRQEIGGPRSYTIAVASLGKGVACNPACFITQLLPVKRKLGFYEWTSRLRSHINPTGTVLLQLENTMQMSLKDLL
Rango-impB inh – Rango-importin beta binding inhibition | AID 540263 | Rango CFP/YFP FRET sensor + importin beta, 45 min | hit rate 0.031% among 340,000 | Potency, µM (doses to about 92.2 µM), inactives show at the top dose inhibition of complex formation; active = rising FRET ratio curve, often small or poorly fitted; inconclusive = mostly compound fluorescence or quenching in the first reads; inactive = flat curves in all reads;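 note: potency is the fitted concentration of half-maximal effect; 0% = DMSO wells and 100% = buffer wells lacking importin beta; nearly all actives have a fitted effect of over 15% in size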
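FRET biosensor (snurportin 1 IBB flanked by EYFP and cerulean), 50 nM, with compound 5 min, then 0.125 microM importin beta in PBS, 1 mM DTT, 0.02% Tween-20, 0.1% BSA. CFP/YFP ratio read after 45 min at room temperature; pre-read flags interference.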
Rango release inh – inhibitors of RanGTP-induced Rango-importin beta complex dissociation | O95149+P62826 | Biochemical FRET Rango-importin beta, RanGTP-induced dissociation | Potency, µM (doses to about 46.1 µM), inactives show at the top dose activity change, negative = inhibition | hit rate 0.071% among 340,000; active means falling FRET ratio curve, often poorly fitted, with flat reads before Ran was added; inconclusive means other falling curves, or compound fluorescence or quenching; inactive means flat or rising ratio curve;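 note: potency is the fitted concentration of half-maximal effect; % of control where 0% means no effect; nearly all actives have a fitted effect of over 45% in size; -100% = wells without RanGTP and RCC1; the record marks most hits as doubtful in a second field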
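Rango/importin beta premix (0.1/0.25 uM final), PBS + 1 mM DTT + 0.02% Tween-20 + 0.1% BSA; cpd 5 min RT; FRET pre-read; + RanGTP-RCC1 (0.6 uM Ran, 2 mM GTP, 0.2 uM RCC1); 45 min RT; FRET post-read, ex 430, em 486/530 nm.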
* = called active by the depositor; ? = inconclusive; / = not tested or not shown; & = joins results of further samples.

SMILES	miR-21 reporter	GLA inh pH 4.5	Rango-impB inh	Rango release inh
COc1cccc(CNC(=O)COC(=O)C23CC4CC(CC(Cl)(C4)C2)C3)c1	/	/	-1.6%	3%
CCN(CC)CCNC(=O)Cn1cnc2sc(C)c(S(=O)(=O)N3CCN(c4ccccc4OC)CC3)c2c1=O	-3%&-3%	/	-1.9%	-10%
CC(=O)N1CCN(c2ccc(NC(=O)c3ccccc3Cl)cc2)CC1	-6%	/	4.5%	3%
COc1ccc(Nc2nc3ccccc3nc2NS(=O)(=O)c2cccs2)cc1	-9%	-11	-2.8%	-11%
CC(C)c1ccccc1OCCNC(=S)NC(=O)c1cccnc1	-2%	3	-0.7%	16%
CCOc1cc(/C=C(\C#N)C(=O)NCC2CCCO2)ccc1O (configuration not stated)	3%&2%	-28	?	?
CCn1nc(NC(=O)C2CCCO2)c2cc3cccc(C)c3nc21 (configuration not stated)	3%	5	?	?
CC(=O)Nc1ccc(C(=O)CSc2nnnn2C(C)C)cc1	-20%	-3	-2.3%	11%
Cc1ccc(SCc2[nH]nc3c2C(c2ccc(C)o2)C(C#N)=C(N)O3)cc1 (configuration not stated)	0%	-1	0.9%	0%
Cc1ccccc1Cn1nc(C)c(NC(=O)c2sc3ccccc3c2Cl)c1C	19%	-3	-2.2%	9%
CN(C)c1nc(N)nc(CSc2n[nH]c(-c3ccccc3)n2)n1	-39%	-1	-7.6%	-10%
CCCCn1c(N)c(N(Cc2ccccc2OC)C(=O)c2cc(CC)c(C)s2)c(=O)[nH]c1=O	/	/	1.3%	0%
O=C(NCc1cccnc1)C12CC3CC(CC(C3)C1)C2	-7%	/	0.4%	10%
O=C(CSc1nnnn1-c1ccccc1)NCC1(N2CCOCC2)CCCCC1	/	/	2.7%	-1%
O=C1C(Cl)=C(N2CCN(c3ccccc3[N+](=O)[O-])CC2)C(=O)c2ccccc21	-2%	-2	0.3%	-10%
Cc1cc(C)nc(SCc2ccc(C(=O)N/N=C/c3cccc(O)c3O)cc2)n1	18%	-12	0.0%	1%
COCCCNC(=O)CCn1c(=O)c2ccccc2n(CC(=O)Nc2cc(Cl)ccc2C)c1=O	0%	1	0.1%	6%
CCNc1nc(NCC)nc(N/N=C/c2ccc(OC)cc2)n1	0%	4	1.6%	18%
CCOc1ccc(/C=C/c2c([N+](=O)[O-])c(=O)n(C)c(=O)n2C)cc1	17%	1	-1.1%	2%
O=C(c1ccccc1Oc1ccccc1)N1CCN(c2ccc(F)cc2)CC1	-2%	4	2.5%	?
COC(=O)c1cc(NCc2ccccc2F)ccc1N1CCOCC1	-7%	-10	?	-17%
COc1ccc(-c2nnc(SCC(=O)NC3CCCCC3)n2N)cc1	/	/	7.2%	-13%
CC1CCN(c2ccc(C(=O)Nc3nnc(C4CC4)s3)cc2[N+](=O)[O-])CC1	-32%	-6	9.7%	34%
COc1ccc(NC(=O)Cn2nnc(C(=O)NCc3ccccc3)c2N)cc1Cl	-13%	-9	0.5%	3%
CCN(CC)S(=O)(=O)c1ccc2[nH]c(=O)cc(C(=O)NCc3ccccc3)c2c1	-2%	/	-1.7%	7%
CSc1ccc(C(=O)C2CCCN(C(=O)c3cc4cc(F)ccc4[nH]3)C2)cc1 (configuration not stated)	-10%	-2	0.2%	-9%
C=CCOc1cccc(C(=O)N2CCCC(CNS(=O)(=O)c3cccs3)C2)c1 (configuration not stated)	1%	3	-4.7%	1%
CC(/C=N/NC(=O)c1ccccc1F)c1ccccc1 (configuration not stated)	-38%	-10	3.3%	-1%
COC(=O)COc1ccc(/C=N/NC(=O)CN(c2ccccc2OC)S(=O)(=O)c2ccccc2)cc1	18%	/	-3.8%	2%
Cc1cc(C)n(-c2ccc([N+](=O)[O-])cc2)n1	-20%	2	-0.9%	14%
O=C(Oc1ccc(Cl)c2cccnc12)c1cccc([N+](=O)[O-])c1	12%	-1	6.2%	5%
COc1cccc(NC(=O)C(=O)NCc2ccncc2)c1	-55%	4	0.0%	1%
O=[N+]([O-])c1ccc(-c2cnc[nH]2)cc1	-16%	-2	5.5%	5%
CC1CCN(c2nnc(N)s2)CC1	-22%	/	-5.6%	-3%
CC(C)CC(NC(=O)OC(C)(C)C)c1cn([C@@H](Cc2cc3ccccc3[nH]2)C(=O)N2CCN(C(=O)OC(C)(C)C)CC2)nn1 (some centres not stated)	12%	-16	?	-11%
COC(=O)CCC(=O)NN1C(=O)c2ccccc2C1=O	0%	-7	4.9%	2%
COc1ccc(N2CCN(c3oc(COc4ccc(Cl)cc4Cl)nc3C#N)CC2)cc1	-13%	-1	-0.1%	-8%
CCOC(=O)CNC(=O)CSc1nc2ncc(Br)cc2[nH]1	5%	-4	1.4%	-32%
COc1ccc(Cl)cc1NC(=O)CN(C)C(=O)Cc1n[nH]c(=O)c2ccccc12	/	/	1.1%	10%
CCCC1CCC(c2ccc(C(N)=O)cc2)CC1 (configuration not stated)	-3%	2	2.0%	-12%

2 entries from above, reformatted:
Molecule: C=CCOc1cccc(C(=O)N2CCCC(CNS(=O)(=O)c3cccs3)C2)c1 (configuration not stated)
  miR-21 reporter: 1%	GLA inh pH 4.5: 3	Rango-impB inh: -4.7%	Rango release inh: 1%
Molecule: CC(/C=N/NC(=O)c1ccccc1F)c1ccccc1 (configuration not stated)
  miR-21 reporter: -38%	GLA inh pH 4.5: -10	Rango-impB inh: 3.3%	Rango release inh: -1%

Further structures follow:
SMILES	miR-21 reporter	GLA inh pH 4.5	Rango-impB inh	Rango release inh
COCCN(CC(=O)Nc1ccccc1C(F)(F)F)C(=O)/C=C/c1ccc2ccccc2n1	/	/	0.0%	-6%
O=C(CCN1C(=O)c2ccccc2C1=O)NC(=S)Nc1ccccc1	-7%	1	0.3%	10%
CCN(CC)C(=O)CCc1nnc(CCc2c[nH]c3ccccc23)o1	-16%	2	-4.5%	1%
COc1ccc2c(c1)c1nc3ccccc3nc1n2Cc1ccc(OC)c(OC)c1	-9%	-1	?	2%
O=C(N/N=C/c1cccc(OC(=O)c2ccccc2Cl)c1)c1cccnc1	-21%	/	2.2%	-11%
CCOc1cccc(/C=C/c2cc(C(=O)O)c3ccccc3n2)c1OC	-2%	-2	0.7%	-5%
CCCCn1c(N)c(N(CCC(C)C)C(=O)COC(=O)c2ccco2)c(=O)[nH]c1=O	-5%	-2	2.9%	10%
CC(=O)Nc1ccc2nc(-c3cccnc3)[nH]c2c1	-1%	5	-4.0%	-3%
CCCNC(=O)CN(Cc1ccco1)S(=O)(=O)c1ccc(OCC)cc1	0%	-6	-0.2%	7%
Cc1cc(C)nc(/N=C2\NC(=O)CC(C(=O)O)N2c2ccc(Oc3ccccc3)cc2)n1 (configuration not stated)	-4%	-2	2.5%	34%
CCOC(=O)C/C(C)=N/NC(=O)c1cccs1	-50%	-1	-0.2%	-1%
COc1ccccc1NC(=O)c1cc(S(=O)(=O)N2CCOCC2)ccc1Cl	-14%	-1	-2.1%	15%
COc1cc(CNCc2ccncc2)ccc1OCC(N)=O	/	/	6.3%	8%
O=C(CCCn1c(=O)[nH]c2cc(Cl)ccc2c1=O)NCCCN1CCCC1	-1%	-10	-0.4%	7%
O=C(OCc1nnc(-c2ccccc2)o1)c1ccc(Cl)cc1	-3%	0	5.6%	2%
C[C@H](CO)N1C[C@H](C)[C@@H](CN(C)C(=O)Nc2ccc(C(F)(F)F)cc2)Oc2c(NS(=O)(=O)c3cccs3)cccc2C1=O	/	/	-2.3%	17%
COc1ccccc1C(c1nnnn1C(C)(C)C)N1CCCCCC1 (configuration not stated)	-7%	7	-4.8%	0%
CC(=O)Oc1ccc(C(=O)Nn2cnnc2)cc1	/	/	-0.8%	?
COc1ccc(-c2cc(=NC(CC(C)C)C(=O)O)c3cc(C)ccc3o2)cc1 (configuration not stated)	-65%	?	-3.0%	-3%
O=C(CSc1nccc(-c2cccs2)n1)Nc1cccc(Cl)c1Cl	-3%	-15	4.5%	4%
Cc1sc2nc(SCc3ccc(C(=O)O)cc3)n(Cc3ccco3)c(=O)c2c1C	19%	-16	1.6%	-5%
Cc1ccc(C(=O)NCc2ccccc2)cc1Br	-24%	2	-0.3%	-6%
Cc1cc(F)ccc1NC(=S)NC1CCCC1	-1%	/	1.9%	0%
O=C(O)c1c(-c2ccc(Cl)cc2)cn2ccccc12	-15%	1	-0.3%	5%
Cc1ccc(S(=O)(=O)NNC(=O)Nc2ccc(Cl)c(Cl)c2)cc1	-2%	6	1.0%	-1%
Cc1noc(C)c1C(=O)N1CCC(C(=O)c2ccccc2)CC1	3%	-3	-1.6%	-4%
Cc1occc1C(=O)NNC1=CC(=O)CC(C)(C)C1	-6%	-2	-0.9%	10%
CC1=C(C(=O)OCc2ccccc2)C(c2ccccc2OC(F)F)NC(=O)N1 (configuration not stated)	11%	-2	-0.2%	2%
CCOC(=O)c1c(CN2CCC(C)CC2)oc2ccc(OC)cc12	0%	-14	-1.4%	-17%
COc1ccc(-n2c3nc4ccccc4nc3c3c(=N)oc(C)nc32)cc1	-6%	-9	?	?
Cc1c[n+]([O-])ccc1[N+](=O)[O-]	/	/	2.7%	14%
COc1ccc([C@H]2CC(=O)C=C(c3ccc4cc[nH]c4c3)C2)cc1	/	/	-5.0%	-16%
NC(=O)CC(NC(=O)c1cccc(Br)c1)c1ccc(N2CCN(c3ccc(F)cc3)CC2)c([N+](=O)[O-])c1 (configuration not stated)	5%	/	-2.6%	-6%
CCOC(=O)c1sc(NC(=O)C2CC(=O)N(c3ccc(OCC)cc3)C2)nc1C (configuration not stated)	4%	/	0.2%	-11%
C[N+]1(CCn2ccc3ccccc32)CCCCC1	-1%	1	-1.6%	1%
CCOC(=O)c1ccc(N2C(=O)C(O)=C(C(C)=O)C2c2ccccn2)cc1 (configuration not stated)	-12%	-6	5.4%	20%
CCOc1ccc(N2C(=O)C3C(c4ccccc4F)NN(C(=O)c4ccc(C)cc4)C3C2=O)cc1 (configuration not stated)	-5%	3	0.2%	-7%
COc1ccc(NC(=O)CN2C(=O)COc3ccc(S(=O)(=O)N4CCOCC4)cc32)cc1Cl	-4%&2%	/	3.1%	6%
CC(=O)c1c(COC(=O)c2ccco2)nc2ccccc2[n+]1[O-]	-6%	-1	3.9%	-4%
COC/C=C/C1=CC2=CC(=O)C(C)(OC(=O)c3cnc4ccccc4n3)C(=O)C2=CN1C(CO)CO (configuration not stated)	0%	9&9	0.5%	-3%

Quoted from the entries so far, 2 compounds:
SMILES	miR-21 reporter	GLA inh pH 4.5	Rango-impB inh	Rango release inh
CC(=O)c1c(COC(=O)c2ccco2)nc2ccccc2[n+]1[O-]	-6%	-1	3.9%	-4%
COC/C=C/C1=CC2=CC(=O)C(C)(OC(=O)c3cnc4ccccc4n3)C(=O)C2=CN1C(CO)CO (configuration not stated)	0%	9&9	0.5%	-3%

Going on with the list:
SMILES	miR-21 reporter	GLA inh pH 4.5	Rango-impB inh	Rango release inh
O=c1[nH]c2ccccc2cc1CN(Cc1cccnc1)S(=O)(=O)c1ccc([N+](=O)[O-])cc1	5%	/	1.9%	12%
CC(C)(Cc1ccc(O)cc1)NC(=O)SCc1ccccc1	2%	/	-0.3%	6%
Cc1cccc(C(=O)NCC(=O)Nc2ccncc2)c1	/	/	?	-15%
COc1ccc(CNC(C)CCc2ccccc2)cc1 (configuration not stated)	-5%	/	-1.9%	1%
c1ccc(-c2ccccc2-c2nc(-c3ccncc3)no2)cc1	-8%	-21	1.5%	?
Cc1cc(C(=O)NCCCC(=O)O)c(C)o1	0%	4	-5.0%	1%
CCN1C(=O)[C@H]2[C@H]3[C@H](O)[C@H](O)C/C(=N\O[C@H](C)c4cn([C@H](CO)Cc5ccccc5)nn4)[C@@H]3CC[C@H]2C1=O	-1%	-2	/	/
CC1CCN(S(=O)(=O)c2ccc3[nH]c(=O)ccc3c2)CC1	-3%	/	-0.1%	8%
COc1cc(/C=N/NC(=O)C(NC(=O)c2ccccc2)c2n[nH]c(=O)c3ccccc23)ccc1OCC(N)=O (configuration not stated)	-3%	/	-0.7%	7%
CC1(c2ccc(OC(F)F)cc2)NC(=O)N(CC(=O)Nc2ccc(S(N)(=O)=O)cc2)C1=O (configuration not stated)	0%	2	5.4%	-6%

Assay outcomes deposited in PubChem BioAssay by National Center for Advancing Translational Sciences (NCATS).

This is a subset. The share of hits here may be higher or lower than overall.
